# HIV Env fusion = inhibitors of HIV-1 Env-driven cell-cell fusion, primary screen, HeLa-JRFL effector, CEM21 target cells, luciferase; inhibition, % at 12.3 µM; 360,000 compounds, 1.1% hits; AID 651610, 2012;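 active = mean replicate inhibition score of at least 50 and every replicate individually at or above 50; inconclusive = only one of the two criteria met; inactive = mean below 50 and not all replicates reaching 50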;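 also: 0% = plate neutral controls and 100% = maraviroc near 300 nM; one replicate is shown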
# UUG fidelity = modulators of yeast start codon fidelity, primary screen, whole organism, S. cerevisiae, single point, plate reader | S. cerevisiae UUG-firefly luciferase reporter, luminescence/redox ratio | activity score, % at 18.7 µM | 350,000 compounds, 0.13% hits;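 active = replicate mean at a twofold rise or more, about +100% in these data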;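 also: firefly luciferase made from a UUG start codon reports start codon fidelity; reporter light over untreated wells divided by growth signal over untreated wells; some hits fall short of that in this replicate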
# Active calls of the source: *; ? = inconclusive; [ ] = remark or other dose. Not all compounds are listed (hit frequency here may not be typical).
No.	molecule	HIV Env fusion	UUG fidelity
1	COc1ccc(CN(C)C[C@H]2OCCCC[C@H](C)Oc3ccc(NS(=O)(=O)c4ccc(Cl)cc4)cc3C(=O)N([C@@H](C)CO)C[C@H]2C)cc1	-11.9[16.7 µM]	10.7
2	CN(C)C(=O)C[C@@H]1C=C[C@H](NC(=O)Nc2cccc(F)c2)[C@H](CO)O1	-17.0[16.7 µM]	7.6
3	CCCNC(=O)N[C@H]1CC[C@@H](CCn2cc(C3CC3)nn2)O[C@@H]1CO	9.8[16.7 µM]	7.1
4	COc1ccccc1S(=O)(=O)N[C@H]1C=C[C@@H](CC(=O)NCc2cc(F)cc(F)c2)O[C@H]1CO	14.2[16.7 µM]	-9.8
5	C[C@@H]1CN([C@@H](C)CO)C(=O)c2cc(NC(=O)c3ccccc3)ccc2O[C@@H](C)CCCCO[C@H]1CN(C)S(=O)(=O)c1ccc(Cl)cc1	15.6[16.7 µM]	-9.9
6	CCc1csc(N2[C@H](C#N)[C@@H](c3ccc(C4=CCCC4)cc3)[C@@H]2CO)n1	-9.5[16.7 µM]	-11.4
7	C[C@H]1CN([C@@H](C)CO)C(=O)c2cc(NC(=O)Nc3ccc(C(F)(F)F)cc3)ccc2O[C@@H]1CN(C)S(=O)(=O)c1ccc(F)cc1	-3.3[16.7 µM]	-1.5
8	O=C(Cc1ccccc1)N[C@H]1C=C[C@@H](CC(=O)N2CCCCC2)O[C@H]1CO	12.4[16.7 µM]	-30.1

No.	molecule	HIV Env fusion	UUG fidelity
9	C[C@@H]1CN([C@H](C)CO)C(=O)c2cc(-c3ccccc3F)cnc2O[C@@H]1CN(C)C(=O)C1CC1	9.0[16.7 µM]	8.1
10	C[C@H](O)C#Cc1cnc2c(c1)C(=O)N([C@@H](C)CO)C[C@@H](C)[C@H](CN(C)C(=O)CN(C)C)O2	-13.3[16.7 µM]	-1.7
11	C[C@H]1CCCCO[C@H](CN(C)S(=O)(=O)c2cn(C)cn2)[C@@H](C)CN([C@@H](C)CO)C(=O)c2cc(NC(=O)Nc3ccc4c(c3)OCO4)ccc2O1	13.6[16.7 µM]	16.7
12	CO[C@@H]1CN(C)C(=O)c2ccc(NC(=O)Nc3cccc(Cl)c3)cc2OC[C@H](C)NC[C@@H]1C	8.2[16.7 µM]	61.2
13	C[C@H](CO)N1C[C@H](C)[C@H](CN(C)Cc2ccc(C(F)(F)F)cc2)Oc2ccc(NS(=O)(=O)c3cccs3)cc2C1=O	-5.0[16.7 µM]	0.3
14	COc1ccc(S(=O)(=O)N[C@H]2CC[C@H](CC(=O)NCCc3ccccc3)O[C@H]2CO)cc1	-27.6[16.7 µM]	44.1
15	CO[C@@H]1CN(C)C(=O)c2ccc(NC(=O)C3CCC3)cc2OC[C@@H](C)NC[C@@H]1C	20.5[16.7 µM]	-10.7
16	O=C(C[C@H]1C[C@@H]2c3cc(NC(=O)C4CCOCC4)ccc3O[C@@H]2[C@@H](CO)O1)NCc1ccncc1	9.5[16.7 µM]	-13.1

No.	molecule	HIV Env fusion	UUG fidelity
17	C[C@@H]1CCCCO[C@@H](CN(C)C(=O)CCC(F)(F)F)[C@@H](C)CN([C@H](C)CO)C(=O)c2cc(NS(=O)(=O)c3ccc(F)cc3)ccc2O1	1.9[16.7 µM]	-3.4
18	COc1ccc(S(=O)(=O)Nc2ccc3c(c2)CC(=O)N([C@H](C)CO)C[C@@H](C)[C@@H](CN(C)S(=O)(=O)c2cn(C)cn2)O3)cc1	7.6[16.7 µM]	-0.3
19	C[C@@H]1CN([C@@H](C)CO)S(=O)(=O)c2ccc(C3=CCCC3)cc2O[C@@H]1CN(C)C(=O)c1ccncc1	-7.4[16.7 µM]	-15.1
20	C[C@@H]1CN([C@H](C)CO)S(=O)(=O)c2ccc(C#CCN(C)C)cc2O[C@H]1CN(C)Cc1cccnc1	-35.5[16.7 µM]	-6.6
21	C[C@@H]1CCCCO[C@H](CN(C)C(=O)NC2CCCCC2)[C@H](C)CN([C@@H](C)CO)C(=O)c2cc(N(C)C)ccc2O1	-2.7[16.7 µM]	10.1
22	COc1ccc(S(=O)(=O)N2C[C@H]3CON(C)[C@H]3C[C@H]2c2ccc(-c3cc4ccccc4o3)cc2)cc1	?	6.7
23	CCC(=O)N1C[C@@H](C)[C@@H](OC)CN(C)C(=O)c2cc(NC(=O)C3CC3)ccc2OC[C@H]1C	5.9[16.7 µM]	18.1
24	CCS(=O)(=O)Nc1ccc2c(c1)C(=O)N(C)C[C@@H](OC)[C@@H](C)CN(C)[C@H](C)CO2	8.6[16.7 µM]	-3.0

No.	molecule	HIV Env fusion	UUG fidelity
25	C[C@@H]1CCCCO[C@@H](CN(C)Cc2ccc3c(c2)OCO3)[C@@H](C)CN([C@H](C)CO)C(=O)c2cc(NC(=O)Nc3ccc(F)cc3)ccc2O1	3.6[16.7 µM]	-19.3
26	C[C@@H]1CCCCO[C@H](CN(C)C(=O)Nc2cccc3ccccc23)[C@H](C)CN([C@@H](C)CO)C(=O)c2cc(NC(=O)Nc3ccc(F)cc3)ccc2O1	0.5[16.7 µM]	-2.7
27	[N-]=[N+]=Nc1ccccc1C[C@@]1(C(=O)NCCN2CCOCC2)N=C(c2ccc(OCCCO)cc2)O[C@@H]1c1ccccc1	-16.4[16.7 µM]	-0.8
28	O=C(C1=C[C@H](c2ccc(Br)cc2)C[C@H](OCc2ccc(CO)cc2)O1)N1CCCCCCC1	12.7[16.7 µM]	2.9
29	O=C1O[C@@H](c2ccccc2)[C@@H](c2ccccc2)N2[C@@H](c3ccc(O)cc3)[C@]3(C(=O)Nc4ccc(C#CC5=CCCCC5)cc43)[C@@H](C(=O)O)[C@H]12	2.5[16.7 µM]	4.7
30	C[C@@H]1CN([C@H](C)CO)C(=O)Cc2cc(NS(=O)(=O)c3ccc(F)cc3)ccc2O[C@H]1CN(C)Cc1ccc2c(c1)OCO2	-0.8[16.7 µM]	2.8
31	C[C@@H]1CCCCO[C@@H](CN(C)S(=O)(=O)c2cn(C)cn2)[C@@H](C)CN([C@@H](C)CO)C(=O)c2cc(NC(=O)NC3CCCCC3)ccc2O1	-57.5[16.7 µM]	-8.8
32	CC(=O)N(C)C[C@@H]1Oc2cc(Br)ccc2S(=O)(=O)N([C@@H](C)CO)C[C@@H]1C	0.5[16.7 µM]	63.2*

No.	molecule	HIV Env fusion	UUG fidelity
33	O=C(NCC[C@H]1CC[C@@H](NC(=O)c2cnccn2)[C@@H](CO)O1)Nc1ccc(F)cc1	3.2[16.7 µM]	3.4
34	COc1ccc(NC(=O)N(C)C[C@@H]2Oc3ncc(C#CC(C)C)cc3C(=O)N([C@H](C)CO)C[C@H]2C)cc1	0.8[16.7 µM]	16.7
35	Cn1cnc(S(=O)(=O)N[C@H]2CC[C@@H](CC(=O)N3CCN(c4ccccc4)CC3)O[C@@H]2CO)c1	-2.5[16.7 µM]	1.3
36	C[C@@H]1CCCCO[C@@H](CN(C)Cc2ccc(Cl)c(Cl)c2)[C@@H](C)CN([C@@H](C)CO)C(=O)c2cc(NS(=O)(=O)c3ccccc3)ccc2O1	38.1[16.7 µM]	3.0
37	Cc1ccc(S(=O)(=O)N[C@H]2CC[C@H](CC(=O)N3CCN(c4ccccc4)CC3)O[C@@H]2CO)cc1	22.1[16.7 µM]	-2.8
38	COc1ccc(-c2cnc3c(c2)C(=O)N([C@H](C)CO)C[C@H](C)[C@@H](CN(C)C(=O)Cc2ccccn2)O3)cc1	-13.8[16.7 µM]	0.8
39	O=C(NCC[C@H]1CC[C@@H](NC(=O)C2CC2)[C@H](CO)O1)c1ccc(F)cc1	13.4[16.7 µM]	-19.7
40	COCC(=O)N(C)C[C@H]1Oc2cc(C3=CCCCC3)ccc2S(=O)(=O)N([C@@H](C)CO)C[C@H]1C	-5.6[16.7 µM]	8.0

No.	molecule	HIV Env fusion	UUG fidelity
41	COc1ccc(S(=O)(=O)Nc2ccc3c(c2)C(=O)N([C@@H](C)CO)C[C@@H](C)[C@@H](CN(C)S(=O)(=O)c2cn(C)cn2)OCCCC[C@H](C)O3)cc1	3.9[16.7 µM]	17.2
42	CO[C@@H]1CN(C)C(=O)c2cc(NC(C)=O)ccc2OC[C@@H](C)N(Cc2ccccc2C(=O)O)C[C@H]1C	11.2[16.7 µM]	-8.2
43	C#Cc1ccc([C@H]2C=C(C(=O)NCc3nc4ccccc4[nH]3)O[C@@H](OCCCCO)C2)cc1	1.9[16.7 µM]	-18.2
44	COc1cccc(S(=O)(=O)N[C@H]2CC[C@H](CCn3cc(-c4ccccc4OC)nn3)O[C@@H]2CO)c1	6.0[16.7 µM]	6.6
45	Cc1noc(C)c1S(=O)(=O)Nc1ccc2c(c1)C(=O)N([C@H](C)CO)C[C@@H](C)[C@@H](CN(C)Cc1ccc3c(c1)OCO3)OCCCC[C@H](C)O2	0.9[16.7 µM]	28.2
46	O=S(=O)(N[C@@H]1CC[C@@H](CCn2cc(C3(O)CCCC3)nn2)O[C@@H]1CO)c1ccc(Cl)cc1	-3.2[16.7 µM]	16.3
47	CCCN(CC(=O)Nc1ccccc1OC)C(=O)c1ccc2[nH]c3c(c2c1)CC(C)CC3 (stereo not given)	21.2	-14.4
48	CC(=O)N(C)C[C@@H]1Oc2cc(/C=C/c3ccccc3)ccc2S(=O)(=O)N([C@@H](C)CO)C[C@H]1C	9.9[16.7 µM]	13.9

No.	molecule	HIV Env fusion	UUG fidelity
49	CCCc1cn(CC[C@@H]2CC[C@@H](NC(=O)C3CCCC3)[C@H](CO)O2)nn1	-1.3[16.7 µM]	11.5
50	COc1ccc(NC(=O)N(C)C[C@H]2OCCCC[C@@H](C)Oc3ccc(NC(=O)Nc4ccccc4)cc3C(=O)N([C@H](C)CO)C[C@H]2C)cc1	4.0[16.7 µM]	-7.0
51	CC(C)C#Cc1ccc2c(c1)O[C@@H](CN(C)C(=O)Cc1ccccn1)[C@H](C)CN([C@@H](C)CO)S2(=O)=O	2.7[16.7 µM]	0.8
52	COC(=O)C[C@H]1CC[C@H]2[C@H](COc3ccc(NC(=O)c4cc(F)cc(F)c4)cc3C(=O)N2C)O1	6.0[16.7 µM]	9.2
53	CCCN(C)C[C@@H]1Oc2cc(-c3ccc(C#N)cc3)ccc2S(=O)(=O)N([C@@H](C)CO)C[C@@H]1C	-6.9[16.7 µM]	-4.7
54	C[C@H]1CN([C@@H](C)CO)C(=O)Cc2cc(NC(=O)C3CC3)ccc2O[C@H]1CN(C)Cc1ccc(C(F)(F)F)cc1	8.3[16.7 µM]	2.1
55	COc1ccc(NC(=O)N(C)C[C@@H]2OCCCC[C@@H](C)Oc3ccc(NS(=O)(=O)c4cccs4)cc3C(=O)N([C@H](C)CO)C[C@@H]2C)cc1	2.0[16.7 µM]	19.8
56	O=C(N[C@@H]1C=C[C@@H](CC(=O)N2CCOCC2)O[C@@H]1CO)c1cccc(F)c1	18.2[16.7 µM]	10.6

No.	molecule	HIV Env fusion	UUG fidelity
57	COc1ccc(NC(=O)Nc2cccc3c2O[C@@H](CN(C)CC2CC2)[C@H](C)CN([C@@H](C)CO)C3=O)cc1	-14.5[16.7 µM]	-13.3
58	C[C@@H]1CCCCO[C@H](CN(C)S(=O)(=O)c2ccc(Cl)cc2)[C@@H](C)CN([C@@H](C)CO)C(=O)c2cc(NS(=O)(=O)c3ccc(F)cc3)ccc2O1	48.2[16.7 µM]	4.7
59	CO[C@H]1CN(C)C(=O)c2cc(NC(C)=O)ccc2OC[C@@H](C)N(C(=O)c2ccccn2)C[C@H]1C	0.5[16.7 µM]	-2.5
60	Cc1ccc(S(=O)(=O)Nc2ccc3c(c2)C(=O)N([C@@H](C)CO)C[C@H](C)[C@H](CN(C)C(=O)CCC(F)(F)F)OCCCC[C@H](C)O3)cc1	-32.8[16.7 µM]	10.3
61	COc1ccc(CNC(=O)C[C@H]2CC[C@@H](NS(=O)(=O)c3cccc(OC)c3)[C@H](CO)O2)cc1	-1.6[16.7 µM]	-6.4
62	COc1ccc(CN(C)C[C@H]2OCCCC[C@@H](C)Oc3ccc(NC(=O)c4ccncc4)cc3C(=O)N([C@@H](C)CO)C[C@@H]2C)cc1	-22.5[16.7 µM]	7.5
63	C[C@H](CO)N1C[C@H](C)[C@H](CN(C)C(=O)c2ccccc2)Oc2ncc(Br)cc2C1=O	5.8[16.7 µM]	2.4
64	O=C(C[C@@H]1C[C@@H]2c3cc(NC(=O)Nc4ccccc4F)ccc3O[C@@H]2[C@H](CO)O1)NCc1ccncc1	-1.4[16.7 µM]	-18.2

No.	molecule	HIV Env fusion	UUG fidelity
65	C[C@@H]1CN([C@H](C)CO)C(=O)Cc2cc(NC(=O)CCC(F)(F)F)ccc2O[C@H]1CN(C)Cc1ccc(-c2ccccc2)cc1	-2.1[16.7 µM]	-13.7
66	C[C@@H]1CN([C@@H](C)CO)C(=O)Cc2cc(NC(=O)CCCCCC(=O)Nc3ccccc3N)ccc2O[C@H]1CN(C)Cc1ccc(-c2ccccc2)cc1	11.6[16.7 µM]	1.6
67	COc1ccc(NC(=O)Nc2ccc3c(c2)CC(=O)N([C@H](C)CO)C[C@@H](C)[C@@H](CN(C)C(=O)Nc2ccc(OC)cc2)O3)cc1	-7.6[16.7 µM]	-4.7
68	Cc1ccc(S(=O)(=O)Nc2ccc3c(c2)C(=O)N([C@H](C)CO)C[C@H](C)[C@H](CN(C)S(=O)(=O)c2c(C)noc2C)OCCCC[C@H](C)O3)cc1	36.7[16.7 µM]	0.3
